# GIRK2 act: activators of human GIRK2 potassium channels; HEK293-GIRK2 thallium flux, Thallos fluorescence; calls only for hits at 25 µM; 0.05% of 63,000 active;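 active means among the strongest 0.2% of first-round signals and kept after retests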;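 further: first round at about 10 µM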
# Target sequence (P48051 whole entry, looked up): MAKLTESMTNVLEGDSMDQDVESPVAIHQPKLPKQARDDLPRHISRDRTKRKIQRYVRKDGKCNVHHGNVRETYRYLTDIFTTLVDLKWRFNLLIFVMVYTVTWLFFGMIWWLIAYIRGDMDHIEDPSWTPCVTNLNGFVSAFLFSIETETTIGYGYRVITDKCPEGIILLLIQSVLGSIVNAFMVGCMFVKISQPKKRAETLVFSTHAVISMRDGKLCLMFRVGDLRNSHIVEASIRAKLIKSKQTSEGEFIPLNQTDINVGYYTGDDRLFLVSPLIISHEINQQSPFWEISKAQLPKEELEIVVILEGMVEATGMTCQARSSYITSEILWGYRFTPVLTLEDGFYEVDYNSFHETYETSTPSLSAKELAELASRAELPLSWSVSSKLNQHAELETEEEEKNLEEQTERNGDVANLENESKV
# Calls only; i = inactive; + = active, no number.
No.	smiles	GIRK2 act
1	COc1ccc(S(=O)(=O)NCC(c2ccsc2)N2CCCCCC2)cc1Cl (configuration not stated)	i
2	CCOC(=O)c1c(S(=O)(=O)Nc2cccc(SC)c2)n[nH]c1C	i
3	CC(C)N(Cc1ccccc1)S(=O)(=O)c1cc2c3c(c1)CCN3C(=O)CC2	i
4	Cc1ccc(OCC(O)Cn2c(NCCN(C)C)nc3c2c(=O)n(C)c(=O)n3C)cc1C (configuration not stated)	i
5	CCc1c(-c2ccc(F)cc2)nn2c1NC(=O)C2CC(=O)Nc1ccccc1C(=O)OC (configuration not stated)	i
6	CCOc1ccc(C(C)C)cc1S(=O)(=O)N1CCCCCC1	i
7	COc1ccc(N(CC(O)Cn2cc(/C=N\NC(N)=O)c3ccccc32)S(C)(=O)=O)cc1 (configuration not stated)	i
8	Cc1nc(-c2cccs2)sc1CNC(=O)c1ccc(Br)o1	i
9	CCOC(=O)c1cnn2ccc(NC(=O)C(c3ccccc3)c3ccccc3)cc12	i
10	O=C(CCCn1nnc2ccccc2c1=O)Nc1ccc(F)c(Cl)c1	i
11	COc1ccc(S(=O)(=O)N2CCCCC2CC(=O)NCc2cccc(OC)c2)cc1 (configuration not stated)	i
12	COc1ccc(-c2c(-c3ccc(OCC(=O)NN)cc3O)n[nH]c2C(F)(F)F)cc1	i
13	C[N+]1(CC(O)COC23CC4CC(CC(C4)C2)C3)CCCCC1 (configuration not stated)	i
14	COc1ccc(CNC(=O)Cn2nc3c(c2NC(=O)Cc2ccccc2Cl)CSC3)cc1	i
15	CCOc1ccccc1NCCCn1c(C)c(C)n2c3c(=O)[nH]c(=O)n(C)c3nc12	i
16	O=C(c1ccco1)N1CCC(Oc2ncccc2Cl)CC1	i
17	COc1cc(O)cc(C)c1C(=O)O[C@@H]1[C@H](O)[C@@H](CO)O[C@H]1n1ccc(=O)[nH]c1=O	i
18	O=C(NCC(F)(F)F)C1(c2ccc(F)cc2)CC1	i
19	O=c1c([N+](=O)[O-])c(NCC(O)c2ccccc2)c2ccccc2n1-c1ccccc1 (configuration not stated)	i
20	C=CCOc1cccc(C2c3c(oc4cc(C)c(C)cc4c3=O)C(=O)N2CCN(C)C)c1 (configuration not stated)	i

# A draw from above in order of length of the SMILES, rising.
No.	smiles	GIRK2 act
16	O=C(c1ccco1)N1CCC(Oc2ncccc2Cl)CC1	i
11	COc1ccc(S(=O)(=O)N2CCCCC2CC(=O)NCc2cccc(OC)c2)cc1 (configuration not stated)	i
14	COc1ccc(CNC(=O)Cn2nc3c(c2NC(=O)Cc2ccccc2Cl)CSC3)cc1	i
15	CCOc1ccccc1NCCCn1c(C)c(C)n2c3c(=O)[nH]c(=O)n(C)c3nc12	i
5	CCc1c(-c2ccc(F)cc2)nn2c1NC(=O)C2CC(=O)Nc1ccccc1C(=O)OC (configuration not stated)	i
19	O=c1c([N+](=O)[O-])c(NCC(O)c2ccccc2)c2ccccc2n1-c1ccccc1 (configuration not stated)	i

# (next part)
No.	smiles	GIRK2 act
21	COc1ccc(Cl)cc1NC(=O)CN1CC(c2nc(C)no2)C1	i
22	O=C(c1cc(Cl)ccc1Cl)N1CCC(Cn2ccnc2)CC1	i
23	c1nc2c([nH]1)CCCC2	i
24	COc1cccc2sc(N3CC(C(=O)N4CCN(c5ccc(C(C)=O)cc5)CC4)C3)nc12	i
25	CCc1ccc(Nc2nc3c(c(=O)n(C)c(=O)n3C)n2Cc2ccccc2)cc1	i
26	O=C(Cc1ccc(NC(=O)CCS(=O)(=O)c2ccccc2)cc1)NCc1cccs1	i
27	COc1ccc(C)cc1N1CCCn2c1nc1c2c(=O)n(CCCO)c(=O)n1C	i
28	O=C(Cn1nc2c(c1NC(=O)CSc1ccncc1)CSC2)NCc1ccccc1	i
29	Cc1ccccc1C(=O)N1CCN(c2oc(/C=C/c3ccccc3)nc2C#N)CC1	i
30	Cn1c(CN2CCN(C(=O)c3ccc([N+](=O)[O-])o3)CC2)nc2ccccc21	i
31	O=c1cc(-c2ccc3c(c2)OCCO3)oc2ccc(F)cc12	i
32	Cc1cccc(Nc2nc(CC(=O)NCCOc3ccc(F)cc3)cs2)n1	i
33	Cc1cc(CCNC(=O)/C=C/c2ccc3c(c2)OCO3)on1	i
34	Cc1ccc(NC(=O)Cn2cnc3c(-c4ccc(F)cc4)nsc3c2=O)cc1F	i
35	NCC1(N2CCOCC2)CCCCC1	i
36	CC(C)(C)C(=O)N1CCN(c2cc(Nc3ccccn3)ncn2)CC1	i
37	Cc1cc(=O)[nH]c(-n2ncc(C(=O)NCc3ccc(F)cc3)c2C)n1	i
38	COc1cc(/C=C/C(=O)OC[C@H]2O[C@H](O[C@]3(CO)O[C@H](CO)[C@@H](O)[C@@H]3OC(=O)/C=C/c3cc(OC)c(O)c(OC)c3)[C@H](O)[C@@H](O)[C@@H]2O)cc(OC)c1O	i
39	COc1ccc(C)c2sc(N(Cc3ccncc3)C(=O)Cc3ccc(SC)cc3)nc12	i
40	O=C(NCCn1cnc(-c2ccccc2)cc1=O)c1ccc2nsnc2c1	i
41	COc1cc(C)ccc1S(=O)(=O)NCCn1cnc(-c2ccccc2)cc1=O	i
42	Cc1ccc(C)c(-c2nnc(NC(=O)c3cnccn3)o2)c1	i
43	CSc1nc2ccc3nc(NC(=O)c4cc(C)no4)sc3c2s1	i
44	COc1cccc2sc(N(CC3CCCO3)C(=O)CCSc3ccc(F)cc3)nc12 (configuration not stated)	i
45	COc1ccc(-c2noc(-c3ccc(SCC(=O)NC(C)C)nc3)n2)cc1	i
46	O=C1CCSCC(C(=O)N2CCCc3ccccc32)N1 (configuration not stated)	i
47	Cc1ccc(NC(=O)CSc2nc3c(oc4ccccc43)c(=O)n2Cc2ccco2)cc1C	i
48	COc1ccc(NC(=O)c2nnn(-c3ccc(C)c(C)c3)c2-c2cccnc2)c(OC)c1	i
49	CC(=O)c1cccc(C(=O)NC2CCN(C(=O)c3cn(-c4ccccc4)nn3)CC2)c1	i
50	O=C(Nc1nccs1)c1csc(Nc2ccc(OC(F)F)cc2)n1	i
51	COc1ccc2nc(N(CCN3CCOCC3)C(=O)CSc3ccc(C)cc3)sc2c1	i
52	CC(C)c1ccc(OCC(=O)N2CCN(c3ncnc4c3nnn4-c3ccccc3)CC2)cc1	i
53	CCCCCNC(=O)C(=O)c1cn(CC(=O)N2CCOCC2)c2ccccc12	i
54	Cc1cccc(C)c1NC(=O)Cn1cnc2c(oc3ccccc32)c1=O	i
55	CCOc1ccc(N/C=C(\C#N)c2nc3ccccc3s2)cc1	i
56	Cc1cc(C)c(S(=O)(=O)NCC(C)(O)CCc2ccccc2)c(C)c1 (configuration not stated)	i
57	Cn1nc(N2CCC(C(=O)Nc3ccc4c(c3)OCCO4)CC2)ccc1=O	i
58	COc1cc(NC(=O)Cn2c(=O)c(CNc3ccccc3)cc3ccc(OC)cc32)cc(OC)c1	i
59	Cc1nc(Nc2ccccn2)cc(N2CCN(C(=O)c3c(F)cccc3Cl)CC2)n1	i
60	C=CCn1c(N2CCC(C(N)=O)CC2)nc2c1c(=O)n(C)c(=O)n2C	i

# Molecules listed so far that have a nitro group on carbon:
No.	smiles	GIRK2 act
19	O=c1c([N+](=O)[O-])c(NCC(O)c2ccccc2)c2ccccc2n1-c1ccccc1 (configuration not stated)	i
30	Cn1c(CN2CCN(C(=O)c3ccc([N+](=O)[O-])o3)CC2)nc2ccccc21	i

# Following part
No.	smiles	GIRK2 act
61	O=C(/C=C/c1ccc(O)cc1)O[C@H]1[C@@H]2C=CO[C@@H](O[C@@H]3O[C@H](CO)[C@@H](O)[C@H](O)[C@H]3O)[C@@H]2[C@@]2(CO)O[C@@H]12	i
62	CCOC(=O)c1c(NC(=O)CSc2nnc3ccc4ccccc4n23)sc(C)c1C	i
63	O=C(NCCCN1CCN(c2ccccc2)CC1)C(=O)NCCC1=CCCCC1	i
64	Cn1c(=O)c2c(nc3n2CCN3c2ccc(OCc3ccc(Cl)cc3)cc2)n(C)c1=O	i
65	Cc1ccc(-n2c(N3CCOCC3)nc3cc(C(=O)NCc4cccs4)ccc3c2=O)cc1C	i
66	O=C(Nc1ccc(-c2cn3ccsc3n2)cc1)c1ccc(-n2cccn2)nn1	i
67	O=C(Cn1cnc2ccccc2c1=O)N1CCCC(c2nnc(-c3ccccc3F)s2)C1 (configuration not stated)	i
68	c1cncc(-c2nnc3sc(-c4ccc5c(c4)OCCO5)nn23)c1	i
69	CCCCCCCOC(=O)CC1c2cc(OC)ccc2N(C=O)C1C (configuration not stated)	i
70	O=C(NCCc1ccccc1)c1cn(-c2cccc(F)c2)nn1	i
71	COc1ccc(Oc2c(C)oc3cc(OC(=O)C4CC4)ccc3c2=O)cc1	i
72	CCOc1cc(C2C(=C(O)c3ccc(C)cc3)C(=O)C(=O)N2c2nccs2)ccc1O (configuration not stated)	i
73	COc1cccc2cc(C(=O)N3CCC(Oc4ccc(C(F)(F)F)cn4)CC3)oc12	i
74	O=C(Cn1c(=O)[nH]c2c(-c3ccccc3F)c[nH]c2c1=O)NCc1cccs1	i
75	O=C(c1ccco1)N1CCN(c2ccc(-c3noc(C(F)(F)F)n3)cn2)CC1	i
76	CCOc1ccccc1-c1nc(CSc2nc3ccccc3c(=O)n2Cc2ccco2)c(C)o1	i
77	Cc1noc(C)c1S(=O)(=O)Nc1cnc(N2CCN(c3ccccn3)CC2)nc1	i
78	Cc1cc(C(F)(F)F)nc(CCNC(=O)C(C)(C)C)n1	i
79	COc1ccc(NC(=O)Cn2c(=O)nc(N3CCC(C)CC3)c3ccccc32)cc1Cl	i
80	Cc1nc(-c2ccc(N3CCN(C(=O)NCc4ccc(F)cc4)CC3)nc2)no1	i
81	COC(=O)c1ccccc1NC(=O)c1ccc(-c2ccc(OC)cc2[N+](=O)[O-])o1	i
82	O=C(NCCOc1ccccc1)NCC1(c2ccc(F)cc2)CCOCC1	i
83	COc1cccc(C(=O)N2CCN(Cc3nc(C)cs3)CC2)c1OC	i
84	O=C(NCC1CCN(C(=O)c2cccnc2)CC1)Nc1ccccc1C(F)(F)F	i
85	O=S(=O)(NCC#CCOc1ccc2c(c1)OCO2)c1cccnc1	i
86	COC(=O)c1sc2ccccc2c1NC(=O)C1CCCCC1	i
87	Cc1ccc(C(=O)N2CCN(Cc3nnnn3-c3ccc(F)cc3)CC2)cc1C	i
88	C=CCn1c(=N)c(S(=O)(=O)c2ccc(F)cc2)cc2c(=O)n3cccc(C)c3nc21	i
89	COC1CCN(S(=O)(=O)c2ccc3ccccc3c2)CC1	i
90	COc1ccc(/C=C2\NC(=S)N(CC(=O)Nc3ccc(S(N)(=O)=O)cc3)C2=O)cc1	i
91	CC(=O)c1ccc(N2CCN(C(=O)CCn3cnc4c([nH]c5ccc(F)cc54)c3=O)CC2)cc1	i
92	COc1cc(C)c(C)cc1S(=O)(=O)NCCC1CCCCN1S(=O)(=O)c1cccs1 (configuration not stated)	i
93	O=S(=O)(Cc1ccccc1)NCC1CCN(c2cnccn2)CC1	i
94	CCSc1ccc(CC(=O)N(CCn2cccn2)c2nc3ccccc3s2)cc1	i
95	CN(C)CC1CSCCCN1C(=O)c1ccc(=O)[nH]n1 (configuration not stated)	i
96	O=C(Nc1ccc(-n2cnnn2)cc1)c1nnn(-c2ccc(Cl)cc2)n1	i
97	COC(=O)/C=C/c1cc(O)ccc1O	i
98	COC(=O)C(=O)CC(=O)c1ccc(C)s1	i
99	COc1ccc(CCNC(=O)Nc2cc(C)ns2)cc1	i
100	COc1c(C)cnc(Cn2cccc(-c3nc(C)no3)c2=O)c1C	i
101	Cc1cc2nn(CC(=O)Nc3ccccc3C)c(=O)n2c(Nc2ccc(F)c(C)c2)n1	i
102	CSc1ccccc1NC(=O)C(=O)NCC1(c2ccccc2)CCOCC1	+
103	CCOc1ccc(S(=O)(=O)NCCNc2ccc(Nc3cccnc3)nn2)cc1	i
104	COc1ccc2nc(N3CCCC(C(=O)N4CCOCC4)C3)sc2c1 (configuration not stated)	i
105	COc1ccc(OC)c(C2c3c(oc4cc(OC)ccc4c3=O)C(=O)N2CCN(C)C)c1 (configuration not stated)	i
106	COc1ccccc1COc1cc(NC(=O)c2cc(-c3ccc(F)cc3)nn2C)ncn1	i
107	N#Cc1cccc(C(=O)N(CCc2cccs2)Cc2ccoc2)c1	i
108	COc1ccc(CNC(=O)Nc2nc3c(s2)COc2ccccc2-3)cc1OC	i
109	COC(=O)c1ccc(OC(=O)c2ccc3nccnc3c2)cc1	i
110	Cc1ccc(/C=C/S(=O)(=O)NCc2sc(C)nc2C)cc1	i
111	CCn1c(SCC(=O)Nc2ccc(OC)c(Cl)c2)nc2c(-c3ccccc3)c[nH]c2c1=O	i
112	Cc1noc(-c2cccnc2SCC(=O)Nc2cccc(Br)c2)n1	i
113	Cc1cn2c(CCC(=O)NCCn3nc(-c4ccco4)ccc3=O)csc2n1	i
114	Cc1cc2oc3c(c(=O)c2cc1Cl)C(c1ccc(C(C)C)cc1)N(CCN(C)C)C3=O (configuration not stated)	i
115	CCCCC[C@H](O)/C=C/[C@H]1[C@H](O)CC(=O)[C@H]1C/C=C\CCCC(=O)OC(C)C	i
116	O=C1CC(C(=O)Nc2ccc3c(c2)OCO3)n2c(nc3ccccc32)N1 (configuration not stated)	i
117	Cn1nc(N2CCC(C(=O)Nc3ccon3)CC2)ccc1=O	i
118	COC(CNC(=O)C1(c2cccs2)CCCC1)OC	i
119	Cn1cnnc1SCCNC(=O)/C=C/c1ccco1	i
120	O=C(NCC(c1cccs1)N1CCOCC1)C(=O)Nc1ccc2c(c1)OCCO2 (configuration not stated)	i

# Further structures:
No.	smiles	GIRK2 act
121	COc1ccc(-c2[nH]c(-c3cccc(OC)c3)nc2SCC(=O)NCc2ccco2)cc1	i
122	COc1ccc(CNc2nccn(-c3ccc(Br)cc3)c2=O)cc1OC	i
123	Cc1cc(C)c(NC(=O)Cn2cnc3c2c(=O)n(C)c(=O)n3C)c(C)c1	i
124	O=C(c1c(F)cccc1F)N(Cc1ccsc1)Cc1ccco1	i
125	COc1ccc(-n2ncc3c(=O)n(Cc4nc(-c5ccc(C)c(C)c5)no4)cnc32)cc1	i
126	O=C(Cc1[nH]nc2ccc(F)cc12)NCCCn1ccnc1	i
127	O=C(NCCNc1ccc(Nc2cccnc2)nn1)c1cnccn1	i
128	Cn1cccc(-c2nc3ccccc3n2Cc2cccc(C(F)(F)F)c2)c1=O	i
129	O=C(CN1CCc2nc(NC(=O)c3ccco3)sc2C1)Nc1ccc(F)c(Cl)c1	i
130	O=C(C1CCCC1)N1CCCC(c2nnc(-c3cccs3)o2)C1 (configuration not stated)	i

# Only part of the results is shown; count on the stated rates, not on these rows.
